Mtb growth: Confirmatory growth inhibition assay against Mycobacterium tuberculosis H37Rv, potency (AID 1949); most inactive calls were filed without a number and no value below 0 was filed; inhibition, % at 10 µg/mL; hits with a dose series show IC50 in µg/mL; 100,000 tested, 1.6% active;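 active = confirmed in a dose series; inconclusive = about 50% or more but not retested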;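 also: bacteria grown 7 days with compound before Alamar blue readout; 0% = untreated bacteria and 100% = reference antibiotic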
Numbers without * were called inactive; i = inactive; u = inconclusive. Some of the compounds tested; rates above refer to the full screens.

SMILES	Mtb growth
COc1ccc(S(=O)(=O)Nc2nc3c(s2)C(=O)CC(C)(C)C3)cc1	i
CN(C)C(=O)c1ccc(CSc2ccc(Cl)cc2)cc1	i
O=C(Nc1nccs1)c1ccc(Br)cc1	39.6%
CCOC(=O)c1cc(Cc2ccccc2)sc1NC(=S)Nc1ccsc1C(=O)OC	i
COc1ccc(Cl)cc1NC(=S)NCCC(c1ccccc1)c1ccccc1	i
CCc1ccccc1OCC(=O)NC1CCCCC1	i
O=C(c1ccccc1NS(=O)(=O)c1ccccc1)N1CCCCCC1	1.3%
C=CCn1c(SCC(=O)Nc2cc(C)ccc2OC)nnc1-c1ccccc1Cl	i
CC(NS(=O)(=O)c1ccc(Cl)cc1)C1C2CC3CC(C2)CC1C3 (stereo not given)	3.2%
COc1ccccc1N1CCN(C(=O)c2ccc(CSc3ccc(Cl)cc3)cc2)CC1	5.4%
O=C(CC1CCCCC1)c1c(O)c2ccccc2oc1=O	i
CC(Oc1ccc(Br)cc1)c1nc(-c2ccncc2)no1 (stereo not given)	i
COc1ccc(Cl)cc1C(=O)N1CCN(c2ccc(C(F)(F)F)cc2[N+](=O)[O-])CC1	4.8%
COC(=O)C1=CN(CC2CCCO2)C=C(C(=O)OC)C1c1ccccc1Cl (stereo not given)	i
c1ccc(-c2cc3c(NCC4CCCO4)ncnc3s2)cc1 (stereo not given)	i
CC(C)(Oc1ccc(Cl)cc1)C(=O)NCCc1ccc(F)cc1	i
CCCCN(CC)Cc1c(C)[nH]c2ccc(CC)cc2c1=O	3.3%
Cc1cc(=O)n(C(=O)c2ccccc2)c(=O)n1C(=O)c1ccccc1	i
Fc1ccc(-c2csc3ncnc(N4CCN(C5CCCC5)CC4)c23)cc1	u
O=C(CN1C(=O)c2cccc3cccc1c23)Nc1cc(Cl)cc(Cl)c1	1.3%
Oc1c(C(Nc2ccccn2)c2ccc3c(c2)OCO3)cc(Cl)c2cccnc12 (stereo not given)	i
CC1=C(C(=O)Nc2ccccc2Cl)C(c2cc(Br)ccc2OCC(N)=O)NC(=S)N1 (stereo not given)	i
O=[N+]([O-])c1cnn(Cc2cccc(Cl)c2)c1	i
O=C(O)c1ccc(C(Nc2ccccn2)c2cc(Cl)c3cccnc3c2O)cc1 (stereo not given)	i
COc1ccc(S(=O)(=O)N(C)CC(=O)Nc2ccc(Br)cc2F)cc1C	i
CCOC(=O)C1CCCCN1Cc1ccc(Br)cc1 (stereo not given)	3.0%
COc1ccc(C2(C(=O)Nc3ccc(C)c(Cl)c3)CCOCC2)cc1	i
COc1ccc(C(=O)Nc2ccc(-c3cn4ccc(C)cc4n3)cc2)cc1OC	0.0%
CCCCn1c(C2CC(=O)N(c3cccc4ccccc34)C2)nc2ccccc21 (stereo not given)	33.8%
CC1(C)CC2CC(C)(CN2C(=O)c2ccccc2NC(=O)c2ccc(Cl)cc2Cl)C1 (stereo not given)	0.2%
CS(=O)(=O)N(CC(=O)NCCC1=CCCCC1)c1ccc2c(c1)OCO2	i
O=C(O)CCN1C(=O)c2ccc(NC(=O)c3cccs3)cc2C1=O	i
COc1cccc(OC)c1OCCCOc1ccccc1F	8.2%
CCn1c(COc2ccccc2Cl)nnc1SCC(=O)Nc1ccc([N+](=O)[O-])cc1C	3.5%
COC(=O)c1cc(OC)c(OC)cc1NC(=O)c1cc(Cl)ccc1Cl	i
S=C(Cc1ccc2c(c1)CCCC2)N1CCOCC1	i
CCOc1ccccc1-n1c(C)cc(C=O)c1C	8.8%
CSc1ccccc1NC(=O)CN1C(=O)c2ccccc2S1(=O)=O	i
COc1ccc(S(=O)(=O)N2CCC(C(=O)NNC(=S)NC(C)c3ccccc3)CC2)cc1 (stereo not given)	i
Cc1ccc(OCc2occc2C(=O)O)cc1	0.4%
Cc1ccc(OCCCCn2cnc3ccccc3c2=O)c(I)c1	i
CC1CCCCN1C(=O)Cn1cc(C(=O)C2CC2)c2ccccc21 (stereo not given)	4.8%
COc1ccc(C(=O)N2CCC(N3CCOCC3)CC2)cc1	i
COC(=O)c1ccccc1NC(=O)Nc1ccc(OC(F)(F)F)cc1	i
Cc1sc2nc(SCc3n[nH]c(=S)n3-c3ccccc3)[nH]c(=O)c2c1C	18.5%
O=C(CSc1ncn(-c2ccccc2)n1)NCc1ccccc1	i
Cc1ccc(Oc2nc([N+](=O)[O-])nn2C)cc1	3.7%
CC(C)(C)Cc1nnc(NC(=O)c2ccc(-c3ccccc3)cc2)s1	i
Cc1ccc(NC(=O)C(C)Sc2nc(=O)cc(N)n2-c2ccccc2)cc1 (stereo not given)	14.3%
COC(=O)C1=CNC=C(C(=O)OC)C1c1ccccc1OC	i
O=C(Nc1nc2n(n1)C(c1ccccc1)C=C(c1ccccc1)N2)c1ccco1 (stereo not given)	i
O=C(CN1C(=O)C2CC=C(Cl)CC2C1=O)Nc1ccc(C(=O)O)cc1 (stereo not given)	0.7%
CCOc1cc(C(=S)N2CCCC2)ccc1OC	i
CNC(=O)C12CC3(C)CC(C)(CC(C)(C3)C1)C2	i
CCCCOc1ccc(S(=O)(=O)NCc2ccc(OC)cc2)cc1	2.7%
CS(=O)(=O)N1CCN(c2ccc(NC(=O)c3cccs3)cc2)CC1	i
OC(C#CCN1CCCC1)c1ccccc1 (stereo not given)	0.9%
COc1ccc(Cl)cc1N(CC(=O)Nc1cc(Cl)ccc1Cl)S(C)(=O)=O	i
O=C(Nc1cccnc1)c1ccc2c(c1)C(=O)N(Cc1ccco1)C2=O	1.0%
O=c1c2c([nH]c3ccccc13)C(=C1CCCC1)CC2	u
(cont.)
SMILES	Mtb growth
COc1ccc(Cl)cc1NC(=O)c1c(NCc2ccccn2)sc2c1CCCCC2	i
CCC(C)NCCCCOc1ccc2ccccc2c1 (stereo not given)	i
CC(=O)Nc1ccc(NC(=O)CN(c2cc(C(F)(F)F)ccc2Cl)S(C)(=O)=O)cc1	i
CNc1nc(C)c(C(=O)OCc2ccccc2)s1	i
O=C(CS(=O)(=O)Cc1ccccc1)N1CCN(c2cccc(C(F)(F)F)c2)CC1	i
O=C(Cc1cccc2ccccc12)Nc1cc(C(F)(F)F)ccc1N1CCOCC1	2.2%
CS(=O)(=O)c1ccc2nc(NC(=O)c3cccc(NC(=O)c4ccccc4)c3)sc2c1	i
Cc1ccc(OC(F)F)c(NC(=O)Nc2cccc(C(F)(F)F)c2)c1	u
Cn1c(=O)c2[nH]c(NC3CCCC3)nc2n(C)c1=O	i
CCc1ccc(NC(=O)CCOc2ccccc2)cc1	42.5%
CC(=O)NCC12CC3CC(CC(C3)C1)C2	i
CC(=O)Nc1ccccc1NC(=O)COc1cc(C)c(Br)c(C)c1	4.6%
O=C(O)c1cccc(NC(=O)c2cn(-c3ccccc3)nc2-c2cccc(Br)c2)c1	i
CCOC(=O)c1c(NC(=S)NNC(=O)c2ccoc2C)sc(C)c1-c1ccccc1	i
CCOC(=O)C1=CN(C)C=C(C(=O)OCC)C1c1ccc(C)c([N+](=O)[O-])c1	i

Laid out differently: 4 of the compounds above.
CS(=O)(=O)N(CC(=O)NCCC1=CCCCC1)c1ccc2c(c1)OCO2
  Mtb growth: i

O=C(O)CCN1C(=O)c2ccc(NC(=O)c3cccs3)cc2C1=O
  Mtb growth: i

COc1cccc(OC)c1OCCCOc1ccccc1F
  Mtb growth: 8.2%

CCn1c(COc2ccccc2Cl)nnc1SCC(=O)Nc1ccc([N+](=O)[O-])cc1C
  Mtb growth: 3.5%

Other compounds follow.
SMILES	Mtb growth
CC(=O)c1cccc(NC(=S)NCc2ccc(C(=O)O)cc2)c1	i
COc1cccc(OC)c1OCCOCCN(C)CCO	i
COc1ccccc1N1CCN(C(=O)Nc2cccc(F)c2)CC1	i
CCOC(=O)COc1ccc2c(=O)c(Oc3ccc(F)cc3)c(C)oc2c1	1.51µg/mL*
Cc1ccccc1OCc1nnc(SCC(=O)Nc2cccc(C(F)(F)F)c2)n1C	i
CCCn1c(-c2ccc(C(C)(C)C)cc2)nc2ccccc2c1=O	i
c1ccc(-c2nnc(COc3cccc(-c4cnc5ccccc5n4)c3)o2)cc1	i
COc1ccc(Cl)cc1Nc1nc(N)nc(C(F)(F)F)n1	i
COc1ccccc1-n1nnnc1SCc1cc2c(cc1Br)OCO2	i
Cc1cc(Cl)c(S(=O)(=O)NCc2ccc(C(=O)O)cc2)cc1OCC(N)=O	i
CCN(C(=O)c1ccc(C)cc1)C1C2CC3CC(C2)CC1C3 (stereo not given)	0.4%
O=C(O)C1C2C=CC(C3CC23)C1C(=O)Nc1cccc(Cl)c1 (stereo not given)	5.3%
Cc1ccc2nsnc2c1NC(=O)Cc1cccc2ccccc12	i
Cn1c(SCC(=O)Nc2cccc(I)c2)nnc1-c1ccccc1	i
O=C(Nc1ccc(I)cc1)C(Cc1ccccc1)N1C(=O)C2C3C=CC(C4CC34)C2C1=O (stereo not given)	i
CC(=O)c1c(C(C)=O)c(C)n(Cc2ccc3c(c2)OCO3)c1C	i
CCCCNC(=O)c1ccccc1NC(=O)c1ccccc1C	i
O=C(Cc1ccc(Br)cc1)NC1CCCC1	i
CC(=O)Oc1cc(/C=C/c2ccccc2[N+](=O)[O-])nc2ccccc12	2.2%
CCOc1cccc(OCCCCN(C)C)c1	i
CCOC(=O)C(=O)N1CCC(C(=O)OC)CC1	i
Cc1ccc(-c2nnc(N3CCOCC3)c3ccccc23)cc1S(=O)(=O)N1CCN(C)CC1	i
Cc1ccc(S(=O)(=O)N2CCN(c3cccc(Cl)c3Cl)CC2)cc1C	i
CCOC(=O)c1c(NC(=S)NC(=O)c2ccccc2C)sc(C)c1-c1ccc(OC)c(OC)c1	4.5%
COc1ccc(CCCc2nnc(SCc3ccc(Br)cc3)o2)cc1	2.4%
COc1ccccc1CCNC(=O)Nc1cccc(Cl)c1Cl	i
COCC(=O)Nc1ccc([N+](=O)[O-])cc1Cl	i
Cc1nc2ccccc2c(C(=O)O)c1O	i
CC(Sc1nc(-c2ccccc2)cc(C(F)(F)F)n1)C(=O)Nc1sc2c(c1C(N)=O)CCC2 (stereo not given)	0.3%
Cc1ccccc1NC(=O)C1CCCN1S(=O)(=O)c1ccc(Cl)c(Cl)c1 (stereo not given)	i

Gathered by group: the entries above with a thiophene ring, fused or not
SMILES	Mtb growth
CCOC(=O)c1cc(Cc2ccccc2)sc1NC(=S)Nc1ccsc1C(=O)OC	i
c1ccc(-c2cc3c(NCC4CCCO4)ncnc3s2)cc1 (stereo not given)	i
Fc1ccc(-c2csc3ncnc(N4CCN(C5CCCC5)CC4)c23)cc1	u
O=C(O)CCN1C(=O)c2ccc(NC(=O)c3cccs3)cc2C1=O	i
Cc1sc2nc(SCc3n[nH]c(=S)n3-c3ccccc3)[nH]c(=O)c2c1C	18.5%
CS(=O)(=O)N1CCN(c2ccc(NC(=O)c3cccs3)cc2)CC1	i
COc1ccc(Cl)cc1NC(=O)c1c(NCc2ccccn2)sc2c1CCCCC2	i
CCOC(=O)c1c(NC(=S)NNC(=O)c2ccoc2C)sc(C)c1-c1ccccc1	i
CCOC(=O)c1c(NC(=S)NC(=O)c2ccccc2C)sc(C)c1-c1ccc(OC)c(OC)c1	4.5%
CC(Sc1nc(-c2ccccc2)cc(C(F)(F)F)n1)C(=O)Nc1sc2c(c1C(N)=O)CCC2 (stereo not given)	0.3%

Continuation.
SMILES	Mtb growth
CCc1c(C)nc(SCC(=O)Nc2c(C)n(C)n(-c3ccccc3)c2=O)[nH]c1=O	i
Cc1c(C)c2ccc(OC(=O)c3ccc(Cl)cc3Cl)c(C)c2oc1=O	1.7%
CN(C)c1ccc(NC(=O)CSc2nnc(-c3cccs3)n2Cc2ccco2)cc1	i
COc1cccc(Oc2nc3c(c(=O)n(Cc4ccccc4Cl)c(=O)n3C)n2C)c1	4.7%
COc1cc(C=O)ccc1OCC(=O)Nc1ccc2c(c1)OCCO2	i
Cn1nc(CC(=O)Nc2nc(-c3ccccc3)cs2)c2ccccc2c1=O	i
Cc1ccc(SCc2ccc(C(=O)N3CCCC3)cc2)cc1	i
O=C(Nc1ccc(S(=O)(=O)Nc2ncccn2)cc1)c1ccc(-c2ccccc2)cc1	i
O=C(Nc1cccc(F)c1)c1cccc(OCc2ccccc2)c1	i
CCc1ccc(NC(=O)CSc2nc(-c3ccc(OC)cc3)cc(=O)[nH]2)cc1	i
CCOc1ccccc1NC(=O)CSc1nnnn1Cc1ccccc1	i
CCCOc1ccc(-c2nc(C#N)c(N3CCCC3)o2)cc1	i
C#CCOc1ccc(CNc2cc(Cl)ccc2C)cc1Br	19.0%
O=[N+]([O-])c1ccc(N2CCN(C(=S)Nc3ccc(F)cc3F)CC2)cc1	i
CC(C)c1cc(Br)ccc1NC(=O)CSc1nnc(C(C)NC(=O)c2ccc(Cl)cc2Cl)n1C (stereo not given)	i
CC(C)c1ccc(NC(=O)C2CCN(C(=O)c3ccc(-c4ccccc4)cc3)CC2)cc1	i
CC1CCN(S(=O)(=O)c2ccc(NC(=O)C(Sc3ccccc3)c3ccccc3)cc2)CC1 (stereo not given)	6.5%
Cc1ccc(N2C(=O)CC(NCc3ccc4c(c3)OCO4)C2=O)cc1 (stereo not given)	0.6%
CCOc1cc(CO)cc(Cl)c1OCc1ccccc1F	0.8%
O=C(COc1ccccc1)Nc1ccccc1	47.3%
COc1ccc(C2(CNC(=O)c3ccc(F)cc3)CCCC2)cc1OC	i
Cc1ccc2[nH]c(=O)c(CN3CCOCC3)c(-c3ccccc3)c2c1	0.9%
COc1ccc(NC(=O)c2cc3c(C)nn(-c4ccccc4)c3s2)cc1[N+](=O)[O-]	i
C=CCOc1c(CNC(C)(C)CO)cccc1OCC	i
Cc1cc(=O)[nH]c(SCc2ccc(C(=O)Nc3nccs3)cc2)n1	i
CC(=O)c1cc(C#N)c(SCC(=O)c2ccc(Cl)cc2)nc1C	i
CCOc1cc(CNCCO)cc(Br)c1OCc1ccccc1	15.2%
COc1cccc(C(=O)N2CCCCC2)c1OC	i
Cc1nc(C)n(C(=O)N2CCOCC2)n1	i
COc1cccc(N(CC(=O)Nc2cccc(SC)c2)S(C)(=O)=O)c1	i
O=Cc1cc(Br)ccc1OCC(=O)NCc1ccccc1	8.7%
COc1ccc(NS(=O)(=O)c2cc(Cl)ccc2Cl)cc1OC	i
CCOC(=O)c1c(NCc2cc(OC)ccc2O)sc2c1CCC2	0.6%
CCc1cccc(C)c1NS(=O)(=O)c1ccc2ccccc2c1	0.9%
O=C(NCCCc1ccccc1)c1cc(Br)ccc1Cl	5.8%

Screening results from PubChem BioAssay.
